Bioassay records from PubChem.
RGS16-Gao HTS: modulators of RGS16 binding to Galphao, primary screen, biochemical, human proteins, multiplexed bead flow cytometry | AID 1441, 2008 | binding response (% of control), % at 10 µM | bead-based flow cytometry RGS16-Galphao binding, fluorescence; actives lie on both sides | 220,000 compounds, 0.38% hits | Regulator of G-protein signaling 16 (Homo sapiens) + Guanine nucleotide-binding protein …;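 active means below 25% or above 175%, edge rows of some plates excepted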;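 further: Galphao activated by GDP with aluminum fluoride before binding; 100% = wells without compound and 0% = beads without RGS; some results beyond the cut were filed as inactive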
Target sequence (O15492 whole entry, looked up): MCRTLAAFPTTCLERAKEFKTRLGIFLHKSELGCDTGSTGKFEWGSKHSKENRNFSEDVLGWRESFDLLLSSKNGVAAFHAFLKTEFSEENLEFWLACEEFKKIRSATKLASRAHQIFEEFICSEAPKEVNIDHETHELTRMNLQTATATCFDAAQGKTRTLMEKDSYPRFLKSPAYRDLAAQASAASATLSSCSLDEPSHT
Target sequence (P09471 whole entry, looked up): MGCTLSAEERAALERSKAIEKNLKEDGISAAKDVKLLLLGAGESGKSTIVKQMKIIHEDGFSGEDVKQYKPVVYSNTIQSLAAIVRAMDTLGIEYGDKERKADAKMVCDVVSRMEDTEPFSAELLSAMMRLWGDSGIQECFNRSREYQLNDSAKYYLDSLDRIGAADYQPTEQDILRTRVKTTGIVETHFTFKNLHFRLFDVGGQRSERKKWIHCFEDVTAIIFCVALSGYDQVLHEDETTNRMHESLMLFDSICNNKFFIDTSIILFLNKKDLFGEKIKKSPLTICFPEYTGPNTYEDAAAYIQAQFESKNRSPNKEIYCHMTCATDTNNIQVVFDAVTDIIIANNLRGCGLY
Insulin prom inh: inhibitors of insulin promoter-driven GFP, primary screen, imaging, TRM-6 cells (human fetal islet line), eGFP reporter, cell count | inhibition, % at 2 µM | reporter expression induced with tamoxifen | 130,000 compounds, 0.9% hits;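 active means inhibition above the mean plus 3 SD, with well images judged a real hit on visual review, cut at about 60% in these data, passing the limit was not always enough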
GALR2 agonist: GALR2 receptor agonists, primary screen, cell-based; 140,000 compounds, 0.48% hits; Galanin receptor type 2 (Homo sapiens), O43603; GALR2-expressing cells, agonist activation read-out; activation, %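 (tested at 5 µM)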; AID 803, 2007;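 active means above mean plus 3 SD of all compounds, about 5% in these data, not always enough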;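 further: 0% = vehicle buffer wells and 100% = reference agonist at full effect; tested in CHO reporter cells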
Target sequence (O43603 whole entry, looked up): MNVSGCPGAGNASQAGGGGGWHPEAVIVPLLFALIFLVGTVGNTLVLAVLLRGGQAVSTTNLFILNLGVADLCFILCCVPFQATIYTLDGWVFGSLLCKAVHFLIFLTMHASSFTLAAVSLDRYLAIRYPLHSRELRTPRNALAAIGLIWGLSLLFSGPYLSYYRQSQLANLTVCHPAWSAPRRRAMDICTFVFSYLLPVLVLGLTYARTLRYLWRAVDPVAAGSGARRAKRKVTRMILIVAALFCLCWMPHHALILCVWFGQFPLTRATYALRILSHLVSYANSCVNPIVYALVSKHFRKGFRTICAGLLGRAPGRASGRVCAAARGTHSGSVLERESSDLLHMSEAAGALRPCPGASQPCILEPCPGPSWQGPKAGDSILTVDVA
HSV replic up: enhancers of HSV replication in host cells, fold increase, host cell viability. HSV replication augmentation in cells. maximum fold increase. 220,000 compounds, 0.005% hits. AID 1956, 2009;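 active means peak rise of 1.5-fold or more in the series; tested in PC3 cells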;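 further: first round at 10 µM; read as green reporter fluorescence; hits show the peak of a series up to 25 µM; 1 = signal of infected wells without compound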
PKD1 inh: inhibitors of human PKD1 kinase, biochemical, fluorescence polarization; PKD1 kinase fluorescence polarization assay; 200,000 compounds, 0.056% hits; inhibition, %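 (about 10 µM by stock and volumes)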;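 active means inhibition of 50% or more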;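 further: controls were vehicle for no effect and a reference inhibitor for full effect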
Insulin prom inh cell count: recorded beside Insulin prom inh, whose call it bears; normalized cell count, %; measured here: cell count, toxicity; reference of the scale not given here;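 cells exposed to compound for 48 h; stained nuclei by imaging scaled within each plate; lower means fewer cells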
HSV replic up primary fold: second read-out of HSV replic up, no call of its own (marks repeat the call); fold increase; compound at 10 µM; measured here: primary screen fold increase 10 uM; tested in PC3 cells;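 GFP signal in the first replicate; 1 = infected wells without compound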
The depositor's hits bear a star; i = inactive; . = not tested or not shown. The order is random (roughly 1.1% active in at least one column).

SMILES | RGS16-Gao HTS | Insulin prom inh | Insulin prom inh cell count | GALR2 agonist | HSV replic up | HSV replic up primary fold | PKD1 inh
CCCC(=O)Nc1ccc(OCC(O)CNC(C)C)c(C(C)=O)c1 (stereo unspecified) | 57 | 23 | 47 | -1.3 | i | 0.79 | -1
CC(=O)Nc1ccc(N2CC(C)(C)C2=O)cc1 | 118 | 33 | 128 | . | i | 1 | 1
Cc1ccccc1-n1c(SCC(=O)N2CCC(C(=O)O)CC2)nnc1-c1ccncc1 | 97 | -44 | 123 | . | i | 0.98 | -4
CCOC(=O)C1=C(CC)Nc2ccccc2N/C1=N\S(=O)(=O)c1ccc(C(=O)OCC)cc1 | 99 | . | . | . | i | 1 | -3
COCCCNC(=O)C1CCN(S(=O)(=O)N(CC(C)C)CC(C)C)CC1 | 101 | -6 | 120 | -1.3 | i | 1 | -5
O=C1CN(C(=O)CSc2nc3ccccc3c(=O)n2Cc2ccc(F)cc2)c2ccccc2N1 | 107 | 4 | 127 | 0.3 | i | 0.72 | -2
COc1ccc(NC(=O)CSc2nnc(-c3ccccn3)n2N)c(OC)c1 | 105 | -48 | 69 | -1.6 | i | 0.9 | -3
CCOC(=O)c1c(NC(=O)COC(=O)CNC(=O)c2ccco2)sc(C)c1C | 64 | . | . | 1.5 | i | 1 | 1
Fc1ccc(CNCCC(Cc2ccccc2)c2ccco2)cc1 (stereo unspecified) | 103 | . | . | . | i | 0.84 | .
CC1(C)Cc2[nH]c(=O)c(C#N)cc2CS1 | 98 | 44 | 83 | -0.5 | i | 1.1 | -7
COc1ccc(/C=N/n2c(-c3cccs3)n[nH]c2=S)cc1 | 98 | 15 | 148 | -0.4 | i | 0.86 | -3
NCCCCCC(=O)N/N=C/c1ccc2nccnc2c1 | 105 | . | . | . | i | 0.83 | .
O=C(COc1ccc2ccccc2c1)Nc1nccs1 | 92 | . | . | . | i | 0.99 | -5
O=C(Nc1nc2ccccc2s1)c1ccc(OCC2CCCO2)cc1 (stereo unspecified) | 101 | 24 | 132 | -1.3 | i | 1 | -6
CC[C@@H](C)C(NC(=O)OC(C)(C)C)c1cn([C@@H](Cc2ccc(O)cc2)C(=O)N2CCN(C(=O)OC(C)(C)C)CC2)nn1 (stereo partly specified) | 96 | . | . | . | i | 0.64 | 5
O=C(CCC(=O)N/N=C/c1cc(Cl)cc(Cl)c1O)NCc1ccccc1 | 99 | . | . | . | i | 0.87 | -12
CCNC(=O)N1CCN(C(=O)NCC)CC1 | 103 | . | . | . | i | 0.88 | 2
CC1Cc2ccccc2N1C(=O)C1CCCN1S(=O)(=O)c1ccc(Cl)cc1 (stereo unspecified) | 103 | -93 | 99 | -1.0 | i | 0.81 | -5
COc1ccc(CCNC(=O)CSc2nn(-c3ccccc3)c(=S)s2)cc1 | 100 | . | . | . | i | 0.99 | .
C/C=C/C(=O)OCC(=O)NC(=O)NC(C)C | 98 | 45 | 122 | -1.0 | i | 1.1 | -2
COc1ccccc1OCCSc1nnnn1C1CCCCC1 | 106 | 33 | 127 | -1.7 | i | 0.9 | -12
COc1cc(/C=N/NC(=O)CCn2c3ccccc3c3ccccc32)ccc1O | 99 | 9 | 110 | 0.2 | i | 0.94 | 13
Cn1nc(C(C)(C)C)cc1C(=O)NCc1ccc(N2CCCC2=O)cc1 | 97 | . | . | -1.6 | i | 0.89 | -8
O=C1N=C(N2CCOCC2)S/C1=C\C=C/c1ccccc1 | 96 | 10 | 130 | -3.0 | i | 0.71 | -14
N#Cc1cn(CC(=O)NCc2cccnc2)c2ccccc12 | 98 | 42 | 104 | -1.6 | i | 1 | -2
O=C(COC(=O)c1cc[n+]([O-])cc1)Nc1cccc(Cl)c1Cl | 99 | . | . | . | i | 1.1 | -1
N=C1/C(=C/c2ccc(OC(=O)c3ccco3)cc2)C(=O)N=C2SC=CN12 | 102 | . | . | . | i | 1.1 | -1
COc1ccc(CNC(=O)c2cc(-c3cc(C)cc(C)c3O)n[nH]2)cc1 | 105 | . | . | . | i | 0.93 | .
COCCNc1nnc(SCC(=O)c2ccc3c(c2)OCO3)s1 | 104 | . | . | -3.4 | i | 0.96 | -3
Cc1nnc(SCC(=O)Nc2nnc(SCc3cccc(Br)c3)s2)s1 | 26 | 26 | 90 | -2.1 | i | 1.1 | -2
Cc1ccc2nc(-c3ccc(NC(=O)CN4C(=O)c5ccccc5C4=O)cc3)sc2c1 | 100 | 38 | 87 | 4.5 | i | 0.97 | 1
O=C(/C=C/c1cccs1)c1ccc(NC(=O)c2cccc(Br)c2)cc1 | 83 | 12 | 165 | -2.6 | i | 1 | 6
CC(C)NC(=O)COC(=O)c1ccc(Oc2ccccc2)cc1 | 109 | -45 | 86 | -2.2 | i | 0.96 | -11
Cc1ccc(NC(=O)Cn2nnc(C(=O)NCc3ccccc3)c2N)cc1C | 99 | -11 | 126 | -1.5 | i | 0.8 | 0
CC(=O)Nc1ccc(Nc2cc(-c3ccccc3)nc3ncnn23)cc1 | 108 | -14 | 102 | . | i | 0.94 | 4
O=C(Nc1ccc(N2CCOCC2)cc1)c1nc2ccccc2s1 | 99 | . | . | . | i | 0.89 | .
NC(=O)N/N=C\c1cccs1 | 101 | . | . | . | i | 1 | .
CCOC(=O)/C(=C\c1c[nH]c2ccccc12)NC(C)=O | 98 | . | . | -1.4 | i | 1 | -2
CCOC(=O)c1[nH]cnc1C(=O)Nc1cccc(N)n1 | 99 | . | . | . | i | 0.93 | .
COC(=O)C1=C(C)NC(=S)NC1c1ccc(-c2cccc(Cl)c2)o1 (stereo unspecified) | 99 | 0 | 126 | -1.2 | i | 0.85 | -12
CC(=O)NC1CC(C)(C)N(OC(C)=O)C(C)(C)C1 | 114 | 74 | 77 | -2.1 | i | 0.96 | -10
Cc1ccc(S(=O)(=O)N2CC(O)CC2C(=O)OCc2nc3sc(C)c(C)c3c(=O)[nH]2)cc1 (stereo unspecified) | 105 | 28 | 132 | 0.0 | i | 0.94 | -8
CCOC(=O)N1CCN(C(=O)c2n[nH]c(=O)c3ccccc23)CC1 | 104 | 22 | 81 | -3.5 | i | 0.99 | -7
CC1CCN(S(=O)(=O)c2cccc(-c3csc(-c4cccnc4)n3)c2)CC1 | 98 | 12 | 94 | -0.3 | i | 0.98 | -4
CCCNC(=O)CSc1nc2[nH]ncc2c(=O)[nH]1 | 100 | 22 | 99 | . | i | 0.87 | -4
COc1ccc(Cl)cc1NC(=O)NC1CCCCC1 | 96 | 0 | 126 | -1.3 | i | 1 | -3
O=C(CSc1nc2c(c(=O)n1-c1ccccc1)SCC2)N1CCN(c2ccccc2)CC1 | 95 | -43 | 101 | 1.1 | i | 0.88 | -5
O=C(NN=C1c2ccccc2-c2ccccc21)c1cccc(Br)c1 | 109 | . | . | -0.8 | i | 0.82 | 2
CSCCC(NS(=O)(=O)/C=C/c1ccccc1)C(=O)N1CCC(C)CC1 (stereo unspecified) | 94 | . | . | 0.1 | i | 0.86 | -1
Cc1cc(Cl)ccc1OCc1n[nH]c(=S)n1C1CCCCC1 | 111 | 5 | 61 | 2.9 | i | 0.92 | -6
CC1CC(=O)C2=C(C1)OC(N)=C(C#N)C2c1coc2ccccc2c1=O (stereo unspecified) | 100 | -32 | 97 | -0.2 | i | 1.1 | -12
Cc1ccc(-c2nnc(NCc3ccccc3)c3ccccc23)cc1 | 98 | 26 | 135 | 0.1 | i | 1.1 | -3
Cn1c(=O)cc(N2CCN(C(=O)c3ccco3)CC2)[nH]c1=O | 97 | . | . | . | i | 0.67 | 0
O=C(Nc1nnc(-c2cccs2)s1)c1cccc(F)c1 | 105 | 20 | 94 | . | i | 0.81 | -1
CCOc1ccc2c(c1)nc(NCCCO)n2Cc1ccccc1 | 101 | . | . | . | i | 0.89 | .
Cc1ccc(S(=O)(=O)N2CCN(c3ccnc4cc(Cl)ccc34)CC2)cc1 | 101 | . | . | . | i | 0.99 | -3
CCOC(=O)c1c(CC(C)C)csc1NC(=O)C(C)C | 85 | -37 | 69 | -0.7 | i | 0.87 | 1
Nc1ccc(-c2nc3ccc([N+](=O)[O-])cc3[nH]2)cc1 | 22 | 10 | 101 | -0.8 | i | 0.64 | -6
COc1cccc(N2CCN(CC(=O)NCc3cccs3)CC2)c1 | . | -44 | 64 | -1.4 | i | 1 | -5
COc1nc(NCCO)nc(Nc2ccccc2F)n1 | 97 | . | . | . | i | 0.98 | 8

Four entries from above, as labelled records.
CCOC(=O)N1CCN(C(=O)c2n[nH]c(=O)c3ccccc23)CC1
  RGS16-Gao HTS: 104	Insulin prom inh: 22	Insulin prom inh cell count: 81	GALR2 agonist: -3.5	HSV replic up: i	HSV replic up primary fold: 0.99	PKD1 inh: -7
Cc1ccc(S(=O)(=O)N2CCN(c3ccnc4cc(Cl)ccc34)CC2)cc1
  RGS16-Gao HTS: 101	Insulin prom inh: .	Insulin prom inh cell count: .	GALR2 agonist: .	HSV replic up: i	HSV replic up primary fold: 0.99	PKD1 inh: -3
O=C(Nc1nnc(-c2cccs2)s1)c1cccc(F)c1
  RGS16-Gao HTS: 105	Insulin prom inh: 20	Insulin prom inh cell count: 94	GALR2 agonist: .	HSV replic up: i	HSV replic up primary fold: 0.81	PKD1 inh: -1
NCCCCCC(=O)N/N=C/c1ccc2nccnc2c1
  RGS16-Gao HTS: 105	Insulin prom inh: .	Insulin prom inh cell count: .	GALR2 agonist: .	HSV replic up: i	HSV replic up primary fold: 0.83	PKD1 inh: .

The results go on:
SMILES | RGS16-Gao HTS | Insulin prom inh | Insulin prom inh cell count | GALR2 agonist | HSV replic up | HSV replic up primary fold | PKD1 inh
O=C(CN1C(=O)c2ccccc2C1=O)N1CCCCC1 | 103 | . | . | 0.0 | i | 0.98 | -8
Cc1ccc(NC(=O)CSc2nnc(C)c(=O)n2N)c(C)c1 | 103 | -18 | 111 | -0.1 | i | 1 | 4
Cc1ccc(/C=N/N(C)C2=NS(=O)(=O)c3ccccc32)o1 | 102 | . | . | . | i | 0.99 | 6
Cn1c2c(c3ccccc31)CCSC2=O | 106 | . | . | -0.2 | i | 0.87 | 4
O=C(NCc1ccccc1)C1=C[C@@H](c2coc3ccccc3c2=O)C[C@@H](OCc2ccc(CO)cc2)O1 | 99 | . | . | . | i | 0.97 | 2
COC(=O)c1c(C)oc2cc(Br)c(OCC(=O)C(C)(C)C)cc12 | 103 | . | . | -1.5 | i | 0.79 | 1
CC(C)(C)c1ccc2c(c1)OC(C(=O)N/N=C\c1ccncc1)CO2 (stereo unspecified) | 95 | . | . | . | i | 0.89 | .
Cc1c(/C=N/Nc2ccc(F)cc2)c(O)n(C)c(=O)c1C#N | 109 | . | . | . | i | 0.97 | 1
O=C1/C(=N\O)Cc2ccccc21 | 100 | 57 | 87 | -1.6 | . | . | -1
CCOc1ccc(CCNC(=O)Cc2nn[nH]n2)cc1OCC | 114 | -152 | 71 | -1.0 | i | 1 | 2
CCOc1ccc(Nc2nc(Cc3nnc(SCC(=O)c4ccc(C)c(C)c4)o3)cs2)cc1 | 95 | . | . | 19* | i | 0.68 | 1
Cc1cc(C)n(CCc2nc(-c3ccc(C)o3)cs2)n1 | 105 | -42 | 108 | -2.7 | i | 0.99 | 4
CCCNC(=O)C1CC(=O)N(c2ccc(OCC(=O)Nc3cccc(C)c3C)cc2)C1 (stereo unspecified) | 96 | . | . | -2.4 | i | 1 | 4
CCOC(=O)Cn1c(C)cc(=O)c2cccc(C)c21 | 97 | 29 | 116 | -1.6 | i | 0.92 | -5
CCOc1cc(S(=O)(=O)n2cc(-c3ccc(F)cc3)c(N)n2)cc(OCC)c1OCC | 101 | -282 | 40 | -3.9 | i | 0.99 | 6
O=C1[C@@H]2[C@H](C(=O)N1Cc1ccco1)[C@H]1C=C[C@@H]2C1 | 101 | -8 | 106 | -1.7 | i | 0.92 | -1
CCC1=NNc2cccc3c(OC)ccc1c23 | 63 | -3 | 178 | 0.3 | i | 0.96 | 99*
CCOC(=O)c1sc(NC(=O)CSc2nnc(C(C)C)n2CC)nc1C | 104 | 0 | 67 | -1.7 | . | . | -1
COc1c(OC(C)=O)ccc(/C=C/c2ccc3ccccc3n2)c1[N+](=O)[O-] | 102 | -10 | 114 | -2.5 | i | 1 | -13
O=c1c2c3nc4ccccc4nc3n(Cc3ccccc3)c2ncn1Cc1ccco1 | 90 | . | . | -1.1 | i | 1.1 | -3
